MT1-MMP act inh = MT1-MMP (human) activation inhibition. P50281. HT1080 RFP-PRO-GFP cells, GFP/RFP ratio fluorescence, overnight; percent of plate control window, DMSO zero. GFP/RFP ratio change, % at 20 µM. 360,000 compounds, 0.061% hits. AID 651647;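 active = GFP/RFP ratio change of at least 30% with cell ATP level not reduced by more than half and red fluorescence within 50% of control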; also: strong numbers were not always called active
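Assay system – RFP-PRO-GFP reporter HT1080 cells · Compound dosing – single dose of 20 µM compound, 1% DMSO final · Incubation – overnight compound exposure at 37 °C · Measure – GFP/RFP fluorescence ratio · Benchmarks – DMSO wells and RFP-L50D-GFP cells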
eIF4H inh = inhibitors of RNA binding by human eIF4H; Q15056; eIF4H fluorescence polarization binding assay; inhibition, % at 35 µM; 290,000 compounds, 0.94% hits;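 active = 50% or more with normal probe brightness, or confirmed in later tests; inconclusive = above 50% with abnormal brightness, or retests that disagree; inactive = below 50% or failed in later tests; about a fifth of its hits are not listed in these tables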;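 also: calls also rest on retests at 20 µM and on dose response follow-up; 0% = protein and probe with vehicle and 100% = probe without protein; strong numbers were not always called active; many hits fall short of the cut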
CSC inhib = blocks cancer stem cells. cancer stem cell-like cells viability, luminescence. inhibition, % at 7.5 µM. 300,000 compounds, 1.1% hits;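 active = mean at 75% or more and at least half the replicates too; inconclusive = mean and replicates disagree; tested in HMLE shEcad cells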;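 also: 0% = median of negative and 100% = median of positive control wells; the first replicate is given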
HIV Env fusion = inhibitors of HIV Env-mediated cell fusion; 360,000 compounds, 1.1% hits; HeLa-JRFL Env/CEM21 cell fusion, luciferase; AID 651610; inhibition, % at 12.3 µM;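 active = mean replicate inhibition score of at least 50 and every replicate individually at or above 50; inconclusive = only one of the two criteria met; inactive = mean below 50 and not all replicates reaching 50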;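 also: 0% = plate neutral controls and 100% = maraviroc near 300 nM; one replicate is shown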
Rce1 inhib = yeast Ras-converting enzyme inhibition; calls only; AID 2563; yeast membranes, quenched prenylated peptide cleavage fluorescence; Q03530; 290,000 compounds, 0.27% hits;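 active = fall in fluorescence gain of 50% or more versus controls, with final raw signal at or below 3038400; inconclusive = same 50% fall but final raw signal above 3038400; inactive = fall in fluorescence gain under 50%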;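 also: plate controls were neutral control wells for no effect and wells lacking membranes for full effect; tested at 10 µM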
Target sequence (Q03530 whole entry, looked up): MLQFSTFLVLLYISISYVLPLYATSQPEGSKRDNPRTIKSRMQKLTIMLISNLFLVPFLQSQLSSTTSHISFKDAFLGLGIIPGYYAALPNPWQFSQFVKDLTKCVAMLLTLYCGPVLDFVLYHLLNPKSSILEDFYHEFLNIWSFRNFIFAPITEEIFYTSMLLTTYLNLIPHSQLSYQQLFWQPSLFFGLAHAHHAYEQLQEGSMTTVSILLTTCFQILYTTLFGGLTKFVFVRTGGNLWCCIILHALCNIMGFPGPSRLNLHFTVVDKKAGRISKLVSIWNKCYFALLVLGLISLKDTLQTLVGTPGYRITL
PABP FP inh = blocks human PABP binding to poly(A) RNA; P11940; fluorescence polarization; inhibition, % at 35 µM; 290,000 compounds, 1% hits; AID 2014;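 active = 50% or more with normal probe brightness, or confirmed in later tests; inconclusive = above 50% with abnormal brightness, or retests that disagree; inactive = below 50% or failed in later tests; about a fifth of its hits are not listed in these tables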;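 also: calls also rest on retests at 20 µM and on dose response follow-up; controls were probe without protein and protein plus probe with vehicle; some compounds called inactive have numbers as strong as hits; many hits fall short of the cut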
Target sequence (P11940 whole entry, looked up): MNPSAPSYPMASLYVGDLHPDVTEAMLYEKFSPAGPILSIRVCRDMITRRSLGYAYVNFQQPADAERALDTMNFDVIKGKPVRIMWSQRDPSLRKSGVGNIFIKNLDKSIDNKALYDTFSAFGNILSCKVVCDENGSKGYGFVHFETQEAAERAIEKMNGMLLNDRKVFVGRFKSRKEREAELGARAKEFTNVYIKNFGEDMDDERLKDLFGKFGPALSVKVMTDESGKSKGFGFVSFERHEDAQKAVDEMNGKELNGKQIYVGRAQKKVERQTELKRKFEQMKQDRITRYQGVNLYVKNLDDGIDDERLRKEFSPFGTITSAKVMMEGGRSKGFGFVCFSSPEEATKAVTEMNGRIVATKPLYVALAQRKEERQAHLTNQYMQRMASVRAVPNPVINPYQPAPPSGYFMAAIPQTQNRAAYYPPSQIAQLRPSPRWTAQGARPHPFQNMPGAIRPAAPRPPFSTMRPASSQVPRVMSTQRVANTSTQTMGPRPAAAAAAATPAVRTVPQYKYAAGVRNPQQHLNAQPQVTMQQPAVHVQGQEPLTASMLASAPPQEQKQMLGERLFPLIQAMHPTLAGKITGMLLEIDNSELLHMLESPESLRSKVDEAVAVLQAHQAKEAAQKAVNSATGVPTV
UUG fidelity = yeast start codon fidelity modulation; S. cerevisiae UUG-firefly luciferase reporter, luminescence/redox ratio; activity score, % at 18.7 µM; 350,000 compounds, 0.13% hits;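 active = replicate mean at a twofold rise or more, about +100% in these data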;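 also: firefly luciferase made from a UUG start codon reports start codon fidelity; reporter light over untreated wells divided by growth signal over untreated wells; some hits fall short of that in this replicate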
eIF4H inh retest = also measured in eIF4H inh; calls as there; inhibition, %; compound at 20 µM; confirmation average;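 mean of two retest wells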
PABP FP inh retest = further read-out of PABP FP inh, marked with its call; inhibition, %; compound at 20 µM; confirmation repeats;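 mean of two retest wells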
MT1-MMP act inh RFP = also measured in MT1-MMP act inh; calls as there; RFP signal change, %; measured here: RFP expression control read;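 0 = vehicle wells; hits needed this value within 50% of zero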
The depositor's hits bear a star; i = inactive; ? = inconclusive; · = no result given. This is a subset (hit frequency here may not be typical).

SMILES	MT1-MMP act inh	MT1-MMP act inh RFP	eIF4H inh	CSC inhib	HIV Env fusion	Rce1 inhib	PABP FP inh	UUG fidelity	others
CC(=O)NCC(=O)OCC(=O)Nc1nc(-c2ccccc2)cs1	0.1	0.8	9.1	-8.2	-28.9	i	-4.9	-8.7
CCN(CC)S(=O)(=O)c1ccc(O)c(NC(=O)CN2CCc3ccccc3C2)c1	4.3	2.8	-3.6	-4.9	6.4	i	4.6	·
COc1ccc(N=c2oc3ccccc3cc2C(=O)Nc2ccccn2)cc1OC	·	·	-0.6	2.5	·	i	5.7	·
Cc1ccc(S(=O)(=O)N2CCCCC2)cc1NC(=O)COC(=O)c1ccccc1F	4.7	4.3	-14.8	-7.2	3.1	i	8.4	·
N#CCCn1cc(C(=O)Nc2ccccc2Br)c(-c2cccs2)n1	-2.9	-5.4	-5.8	-24.0	3.2	·	-2.0	·
CCOc1ccc(S(=O)(=O)N(CC(=O)N2CCC(C(N)=O)CC2)c2ccc(F)cc2)cc1	-0.6	3.3	8.2	-5.7	·	i	-1.8	14.7
CN(C)S(=O)(=O)N1CCC(n2nccc2NC(=O)CCCc2ccccc2)CC1	-2.0	-0.4	3.5	1.3	-1.6	i	-1.7	-5.5
CC1CCN(C(=O)c2cc(-c3ccc4c(c3)OCO4)on2)CC1	3.6	4.0	3.2	9.5	-65.0	i	-2.4	-33.9
CC(=O)c1cccc(NC(=O)c2cccc(S(=O)(=O)N(C)C)c2)c1	4.3	6.9	-2.4	-12.2	·	i	7.0	-9.4
COc1ccc(-c2oc3ncn4nc(COc5ccccc5)nc4c3c2-c2ccc(OC)cc2)cc1	1.1	1.7	0.7	-3.4	-12.9	i	-5.2	-21.3
CCCn1cnc2cc(NCc3cccs3)ccc21	2.9	3.0	11.1	-12.4	-9.4	i	0.0	·
CCCCC(C(=O)NC1CCCC1)N(C(=O)c1snc(C(N)=O)c1N)c1ccc(C)cc1 (configuration not stated)	-0.7	-8.4	-15.4	·	26.3	i	-6.7	-9.9
COc1cccc(Nc2ncnc3onc(-c4ccccc4OC)c23)c1	1.4	0.0	2.9	2.9	18.5	i	-11.9	-23.4
CCOC(=O)c1nc(C)n(-c2ccc([N+](=O)[O-])cc2)n1	-1.3	-1.4	5.5	-24.1	9.8	i	1.2	-10.1
Cc1nc(SCC(=O)NCCc2ccccc2)nc(C)c1C	1.2	5.3	-4.1	-13.5	·	i	-2.9	-5.5
CCOC(=O)/C(C#N)=C1\C=CN(C)C(C)=N1	-2.1	1.0	8.0	-22.4	-28.4	i	4.0	-16.7
CC(C)Nc1nc(-c2ccccn2)nc(-c2ccccc2)c1C#N	-0.8	-0.7	8.3	-6.1	29.2	i	65.0	·	eIF4H inh retest=-11.1;PABP FP inh retest=1.0
CC(=O)c1cccc(N(CC(=O)Nc2ccc(S(=O)(=O)N3CCCC3)cc2)S(C)(=O)=O)c1	-2.8	-4.5	-5.4	-3.1	·	i	9.6	11.2
CCOC(=O)C1=C(C)N(C)C(=O)NC1c1cc2c(cc1[N+](=O)[O-])OCO2 (configuration not stated)	-2.4	2.4	93.4*	-13.7	-6.3	i	12.7*	5.9	eIF4H inh retest=106.6*;PABP FP inh retest=108.1*
O=C(COc1ccccc1-c1ccccc1)c1ccccc1	-2.6	-0.3	-2.2	5.5	-12.4	i	2.1	-12.8
N#CCSc1nnc(Cc2ccc3c(c2)OCO3)o1	-3.7	-1.1	-6.2	-8.2	-84.7	i	-13.4	-12.6
Cc1ccc(S(=O)(=O)N(C)C)cc1NC(=O)COC(=O)CC1CCCC1	2.8	4.3	·	·	-6.3	i	·	-10.5
CC(CCC(=O)O)(c1ccc(O)cc1)c1ccc(O)cc1	-3.8	3.5	·	-13.8	·	·	·	-3.9
Cc1ccc(N2CC(C(=O)Nc3nnc(SCCN4CCOCC4)s3)CC2=O)cc1C (configuration not stated)	2.4	-0.4	3.3	-15.1	·	i	-3.4	-5.2
OCc1ccccc1OCCCOc1cccc2cccnc12	0.2	-3.0	-3.1	-12.9	-26.1	i	3.9	-5.9
Cc1ccc(S(=O)(=O)c2c(N)n(Cc3ccco3)c3nc4ccccc4nc23)cc1	-81.4	13.0	?	-9.0	6.0	i	?	-14.0
O=C(Cc1nnc(NC(=O)Nc2ccc(F)cc2)s1)NCc1ccccc1	5.7	-1.4	-2.9	1.1	0.7	i	-2.7	-8.0
CCCNC(=O)C(Cc1ccccc1F)NC(=O)c1ccc(C#N)cc1 (configuration not stated)	-0.2	3.4	·	0.9	-23.1	·	·	11.5
CCN(CC(=O)NC(=O)NCc1ccccc1)CC(=O)Nc1cc(Cl)ccc1C	-0.2	-3.8	·	11.6	13.2	·	·	-11.0
COc1cc(/C=C/C(=O)c2ccc(O)cc2)ccc1OCC#N	-3.7	-6.4	1.2	57.7	-82.9	i	-2.4	·
CC1C(=O)N2CCCc3cc(NS(=O)(=O)c4ccccc4)cc1c32 (configuration not stated)	-6.8	-0.8	·	1.6	5.3	i	·	0.6
Cc1ccc(NC(=O)N2CCC(O)(c3cccnc3)CC2)cc1	0.1	-0.4	-1.8	·	·	i	3.5	·
O=C(NCc1ccccc1)[C@@H]1CSC2c3ccccc3C(=O)N21 (some centres not stated)	0.1	0.2	-4.9	-1.6	-8.8	i	-2.9	-20.9
CSc1ccc(C2(O)Cc3cccc[n+]3C2c2ccccc2)cc1 (configuration not stated)	-2.2	-0.1	-8.8	-0.2	13.6	·	1.0	-15.9
Cc1cc(C(=O)NNC(=O)C(CCC(N)=O)NS(=O)(=O)c2ccc(Cl)cc2)c(C)o1 (configuration not stated)	1.4	3.4	·	-9.0	-9.9	·	·	-12.4
COc1ccc(CC(=O)N(C)Cc2ccc(Cl)cc2)cc1S(=O)(=O)N1CCOCC1	3.8	-0.5	·	-1.6	-26.1	i	·	-6.7
CCN(CC)c1ccc(NC(=O)/C=C\c2ccccc2Cl)cc1	9.0	-2.8	-6.8	42.3	·	i	-3.7	8.3
COC(=O)c1ccccc1NC(=O)c1cnn2c(C)cc(C)nc12	-2.8	-0.9	-0.4	23.8	8.8	i	-0.5	·
COc1ccc(C2CC3(CC(C)(C)NC(=O)N3)Oc3cc(O)ccc32)cc1 (configuration not stated)	4.6	-6.1	-3.5	-4.9	-409.9	i	0.4	0.4
COc1ccc(-c2nnc(SCC(=O)O)n2C)cc1OC	2.2	1.6	2.7	·	2.7	i	-1.5	·
Cc1nc(-c2ccc(C(F)(F)F)cc2)sc1C(=O)NN	-0.3	-2.6	10.1	18.5	-12.3	i	-5.1	·
Nc1ccn(CC(=O)NCCCc2ccccc2)c(=O)n1	1.7	0.5	·	-2.4	-7.1	·	·	-10.9
Cc1nn(CC(=O)Nc2ccc(Br)cc2F)c(=O)c2cccn12	3.0	10.5	-5.6	2.8	-3.0	i	1.9	-2.5
CCOc1ccc(Br)cc1S(=O)(=O)Nc1ccc(C(=O)OCC(=O)N(C)c2ccccc2)cc1	0.9	-2.0	7.0	-0.1	-0.6	i	-3.4	·
Cc1cccc(C(=O)N2CC3(C)CC2CC(C)(C)C3)c1 (configuration not stated)	-0.6	0.6	-7.1	7.4	·	i	6.8	-20.3
N#Cc1ccsc1NC(=O)CN1CCN(Cc2ccccc2)CC1	-4.8	-2.7	16.8	-9.8	3.4	i	13.9	·
CCn1nccc1NC(=O)c1csc([C@H]2C[C@H](O)[C@@H](CO)O2)n1	2.3	6.2	·	·	20.0	·	·	-7.3
Cc1ccc(NC(=O)C(c2ccccc2)c2ccccc2)c(O)c1	-2.6	1.4	-8.8	-8.8	12.6	·	13.1	-12.3
Cc1nc(-c2ccncc2)sc1C(=O)Nc1ccc(Cl)cc1	3.2	-3.4	-13.5	15.4	-12.7	i	-8.6	·
CC1CC(C)CN(C(=O)CCCn2c(=S)[nH]c3ccccc3c2=O)C1 (configuration not stated)	-2.8	-1.9	-1.0	-5.0	-43.2	i	-1.7	8.7

Remaining list, next part.
SMILES	MT1-MMP act inh	MT1-MMP act inh RFP	eIF4H inh	CSC inhib	HIV Env fusion	Rce1 inhib	PABP FP inh	UUG fidelity	others
CC(C)=CCC/C(C)=C/C=N/NC(=O)c1cccc([N+](=O)[O-])c1	-1.7	2.4	-12.8	11.5	·	i	12.5	·
CC[C@]12c3[nH]c4cc(CCC(=O)N(C)C)ccc4c3CCN1C(=O)[C@@H](CC(=O)NCCC1=CCCCC1)C[C@@H]2C(=O)N1CCN(C(=O)c2ccco2)CC1	3.7	5.7	·	·	-103.3	·	·	2.8
CCC(C(=O)NCC1CCCO1)N(C(=O)c1snc(C(N)=O)c1N)c1ccc(Cl)cc1 (configuration not stated)	-0.5	-2.3	-5.4	0.4	-14.6	i	10.2	-8.0
Cc1ccc(S(=O)(=O)C(NC(=O)c2ccccc2)=C(Cl)Cl)cc1	-0.1	-5.8	·	41.0	-137.2	i	·	-9.1
O=C(Nc1ccccn1)C12CC3CC(CC(C3)C1)C2	6.0	0.3	7.3	6.2	·	i	3.7	7.4
CS(=O)(=O)N(CC(=O)Nc1ccccc1C(=O)N1CCOCC1)c1ccc(F)c(Cl)c1	2.7	2.3	-3.5	7.2	10.9	i	-7.1	-5.8
CCc1ccc(NC(=O)CSc2nc3[nH]ncc3c(=O)[nH]2)cc1	1.3	-1.3	-2.2	·	0.6	i	-8.4	-0.2
Cc1ccc(-c2nnc(SCC(=O)n3c4c(c5ccccc53)CCCC4)o2)cc1	·	·	-5.7	-18.1	·	i	-6.2	·
CCOC(=O)Nc1ccc2c(CN3C(=O)NC(CC)(CC)C3=O)cc(=O)oc2c1	·	·	4.8	1.8	-75.9	?	-3.8	·
CCCNc1c(NS(=O)(=O)c2ccc(C)c(C)c2)c(=O)oc2ccccc12	0.9	0.6	-1.9	·	7.0	i	12.5	-13.0
Cc1cc(NC(=O)c2c([N+](=O)[O-])cnn2C)no1	0.9	3.8	-7.5	-5.4	2.3	i	-15.9	·
COc1ccc(OCCOCCOc2ccc(C)cc2[N+](=O)[O-])cc1	-1.0	0.0	-1.1	-13.2	-6.4	i	-6.6	-18.5
O=C(Oc1cccc(N2C(=O)C3C4c5ccccc5C(c5ccccc54)C3C2=O)c1)c1ccco1 (configuration not stated)	-1.0	-0.8	-11.8	8.3	4.9	i	-7.8	·
Cc1ccc(NC(=S)N2CCCC(CO)C2)c(C)c1 (configuration not stated)	3.7	3.5	-2.4	-7.4	7.3	·	-4.3	·
Cc1ccc(S(=O)(=O)N2CCN(S(=O)(=O)c3ccccc3Br)CC2)cc1	-3.2	-4.1	·	·	-7.7	·	·	-14.1
CN(CC(=O)NNC(=O)CNC(=O)c1ccccc1Cl)S(=O)(=O)c1ccc(Cl)cc1	1.9	2.2	·	-0.2	-4.0	i	·	-9.7
Cc1ccc(NC2SC(=O)N(Cc3cccc(C(=O)O)c3)C2=O)cc1 (configuration not stated)	3.0	1.3	5.0	-8.9	-16.3	i	14.9	-7.0
Cc1ccc(-c2nnn3c2nc(Cl)c2ccccc23)cc1	-7.4	-8.7	-5.3	·	-1.2	i	7.0	·

As a working copy, some entries already given.
SMILES	MT1-MMP act inh	MT1-MMP act inh RFP	eIF4H inh	CSC inhib	HIV Env fusion	Rce1 inhib	PABP FP inh	UUG fidelity	others
O=C(Oc1cccc(N2C(=O)C3C4c5ccccc5C(c5ccccc54)C3C2=O)c1)c1ccco1 (configuration not stated)	-1.0	-0.8	-11.8	8.3	4.9	i	-7.8	·
Cc1ccc(NC(=S)N2CCCC(CO)C2)c(C)c1 (configuration not stated)	3.7	3.5	-2.4	-7.4	7.3	·	-4.3	·
